VDR inhibitor: inhibitors of human vitamin D receptor | VDR-SRC2-3 peptide fluorescence polarization, 2 h | Potency, µM, for inactives: max response, negative = inhibition, most hits filed as inhibitors | hit rate 0.93% among 400,000; active means well fitted inhibition curve with a large enough effect; inconclusive means small, poorly fitted or top-dose-only effect, or another doubt; inactive means no such curve, though single readings can be large or run the other way; further: series mostly up to about 120 µM
Target sequence (P11473 whole entry, looked up): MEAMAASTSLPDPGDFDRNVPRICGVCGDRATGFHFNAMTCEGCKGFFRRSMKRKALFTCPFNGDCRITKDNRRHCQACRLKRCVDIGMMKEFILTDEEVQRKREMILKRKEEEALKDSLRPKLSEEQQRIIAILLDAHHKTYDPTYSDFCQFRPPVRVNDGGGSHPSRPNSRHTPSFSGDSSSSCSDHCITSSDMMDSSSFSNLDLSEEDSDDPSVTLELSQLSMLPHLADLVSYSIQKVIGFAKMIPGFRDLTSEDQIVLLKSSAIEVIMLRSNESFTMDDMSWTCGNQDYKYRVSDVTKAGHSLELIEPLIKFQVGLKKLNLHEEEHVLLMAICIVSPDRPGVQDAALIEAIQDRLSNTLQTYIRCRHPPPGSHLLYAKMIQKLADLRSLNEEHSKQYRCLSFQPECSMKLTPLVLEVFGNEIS
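Inhibition of the VDR/SRC2-3 peptide interaction is quantified by fluorescence polarization. Compounds (23 nl, pintool) incubate with the reagents for 2 hours at ambient room temperature.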
An asterisk follows results filed as active; ? = inconclusive; & = joins results of further samples; [ ] = remark or other dose. On the % scale 0 is the no-effect control and ±100 the full control effect; potency means the concentration at half of the fitted maximal effect. This is a subset; rates above refer to the full screens.

| Structure | VDR inhibitor |
| --- | --- |
| CCOc1ccccc1NC(=O)CSc1nccn1-c1ccc(Cl)cc1 | 19% |
| COC(=O)c1ccc(NC(=O)COc2ccc(S(=O)(=O)N3CCCCC3)cc2)cc1 | 17% |
| CSCCCNC(=S)Nc1ccc(N2CCOCC2)cc1 | 7% |
| CC(C)Cc1nnc(NC(=O)C2CC(=O)N(c3ccc4c(c3)OCCO4)C2)s1 (configuration not stated) | -14% |
| CC(=O)Nc1ccc(S[C@@H](CCN2CC[C@H](C(C)(C)C)CCC2=O)c2ccccc2)cc1 | ? |
| CC(=O)c1cccc(NC(=O)Cn2c(C)c3cnn(-c4ccccc4)c(=O)c3c2C)c1 | -6% |
| O=C1C=C(c2ccc3c(c2)OCO3)C[C@@H](c2ccc(F)cc2)C1 | -15% |
| Cn1ncc([N+](=O)[O-])c1C(=O)Nc1ccc(Cl)cc1 | 0% |
| CC(=O)Nc1nc(C)c(C(C)(C)C)s1 | 6% |
| COc1cc2c(cc1OC)CN(CCC(C)c1ccc(Cl)cc1)CC2 (configuration not stated) | 5% |
| CCOC(=O)N1CCC(N2Cc3cccc(C(=O)NCc4ccccc4OC)c3C2=O)CC1 | 0% |
| COc1ccc(CCNc2ncnc3onc(C)c23)c(OC)c1 | 3% |
| COc1ccc(C(CNC(=O)c2ccc(F)cc2)N2CCCC2)cc1 (configuration not stated) | 13% |
| COc1cc(/C=N/N(c2ccccc2)c2ccccc2)ccc1O | -12% |
| Cn1c(COc2ccccc2)nnc1SCCSc1nnc(COc2ccccc2)n1C | 8% |
| CN(C)c1ccc(NC(=O)Cn2c(=O)n(Cc3ccccc3)c(=O)c3ccccc32)cc1 | -2% |
| CCC1(c2ccc(F)cc2)NC(=O)N(CC(=O)N2c3ccccc3CC2C)C1=O (configuration not stated) | -6% |
| Cc1ccc(Cl)cc1NC(=O)COc1ccccc1 | -14% |
| CCOc1ccc(-c2nonc2NC(=O)c2oc3cc(Br)ccc3c2C)cc1 | -3% |
| CCc1c(C)nc(SCC(=O)NC2CCCC2)[nH]c1=O | -5% |

Remaining list, next part
| Structure | VDR inhibitor |
| --- | --- |
| CCOc1ccc(C2Nc3c(C)cccc3-c3cc(C)nn32)cc1 (configuration not stated) | 0% |
| NCC(O)COc1cccc2ccccc12 (configuration not stated) | 7% |
| O=C1CN(C(=O)c2ccco2)C(c2ccccc2)c2cc(Cl)ccc2N1 (configuration not stated) | -2% |
| O=C1c2cccc3cc([N+](=O)[O-])cc(c23)C(=O)N1CC1CCCO1 (configuration not stated) | -3% |
| CC(C)Cn1c(N)c(C=O)c(=O)n(C)c1=O | -11% |
| COc1ccc(-c2nc(NC(=O)C3CCN(c4nc5ccccc5o4)CC3)sc2C)cc1 | 8% |
| COCCn1c(SCC(=O)NCCCN2CCCC2=O)nc2sc3c(c2c1=O)CCCC3 | -21% |
| CCOC(=O)COc1ccc2c3c(c(=O)oc2c1C)CCC3 | -12% |
| Cn1c2c(c(=O)n(C)c1=O)C(c1ccc(F)cc1)C(C#N)=C(N)O2 (configuration not stated) | 6% |
| Cc1nn(CC(=O)NCc2ccccc2Cl)c(=O)c2nn(-c3ccccc3)c(C)c12 | 1% |
| CCn1c(=O)c(C(=O)NNC(=O)c2ccccc2F)c(O)c2ccccc21 | 6% |
| Cc1cccc(-c2oc3ccc(-c4ccc5c(c4)OCO5)cc3c2/C=C/c2ccc(N)cc2)c1 | 1% |
| CNC(=O)NNC(=O)c1onc(-c2c(Cl)cccc2Cl)c1C(=O)OC | ? |
| COc1cc2[nH]c(C(=O)N3CCc4ccccc43)cc2c(OC)c1OC | 9% |
| Cc1cc(C)nc(NS(=O)(=O)c2ccc(CC(C)C)cc2)c1 | -6% |
| NS(=O)(=O)c1cccc(NS(=O)(=O)c2ccc(/C=C/C(=O)OCC(=O)c3ccc(Br)cc3)cc2)c1 | 5% |
| O=C(O)c1cn(-c2ccccc2)c(=O)c2ccccc12 | 9% |
| CC(=O)c1c(C)[nH]c(C(=O)CSc2nnc(NC3CC3)s2)c1C | -16% |
| O=C(Nc1nccs1)c1ccc(Cl)c(S(=O)(=O)N2CCOCC2)c1 | 10% |
| Cc1ccc(N2C(=O)N(CC(=O)C(C)(C)C)c3ccccc3S2(=O)=O)cc1C | 6% |

(list continues)
| Structure | VDR inhibitor |
| --- | --- |
| CC1(C)Cc2c(sc3nc(-c4cc5ccccc5o4)n(N)c(=O)c23)CO1 | 9% |
| O=C1C=C(c2cccc(Cl)c2O)C[C@@H](c2ccc(F)cc2)C1 | -12% |
| Cc1nn(CC(=O)NCC2CCCO2)c(C)c1[N+](=O)[O-] (configuration not stated) | 3% |
| COc1ccc(CNC(=O)CCn2c(=O)[nH]c3ccccc3c2=O)cc1 | 14% |
| O=C(c1ccncc1)N1CCCC(N2CCN(c3ccc(F)cc3)CC2)C1 (configuration not stated) | -11% |
| CCc1ccc(-n2c(=O)c3c4c(sc3n(CC(=O)c3ccc(F)cc3)c2=O)CCC4)cc1 | -10% |
| CCOC(=O)C1CCN(Cc2cc(=O)n3c(-c4ccccc4)csc3n2)CC1 | 17% |
| O=C1NC(=O)C2(CCCCC2)N1 | -5% |
| COCCCNC(=O)CN(C1CCCCC1)S(=O)(=O)c1ccc(C)cc1 | 3% |
| O=C(NCCc1ccccc1)c1cc(-c2ccccc2)nc2n[nH]c(-c3ccccc3)c12 | -9% |
| OC1CCCN(c2ncnc3c2nnn3Cc2c(F)cccc2Cl)C1 (configuration not stated) | -5% |
| CCC(C)N(C(=O)CSc1nnc(COc2ccccc2F)n1N)C1CCS(=O)(=O)C1 (configuration not stated) | -4% |
| COc1cccc(C(=O)Nc2ccc(-c3nnc(-c4ccco4)o3)cc2)c1 | 5% |
| Cc1cc(OCC(=O)OCC(=O)NC2CCCC2)ccc1Cl | -22% |
| CC(=O)Nc1cccc(C(=O)OCC(=O)N(c2ccccc2)C2CCS(=O)(=O)C2)c1 (configuration not stated) | 38%[activator] |
| COc1ccc(N2C(=O)CC(Sc3nnnn3-c3ccc(F)cc3)C2=O)cc1 (configuration not stated) | -9% |
| O=c1cc(CO)oc(C(Nc2ccccn2)c2ccc(C(F)(F)F)cc2)c1O (configuration not stated) | ? |
| C=C1C2CC[C@]3(CCC4[C@@]5(C)CCC[C@@]4(CN(CCO)C5)[C@@H]3C2)[C@@H]1O (some centres not stated) | 2% |
| CC(C)OC(=O)c1ccc(NCc2cc(O)ccc2O)cc1Cl | -8% |
| CCc1nnc(NS(=O)(=O)c2ccc(N/C=C\C(=O)c3cccc4ccccc34)cc2)s1 | -21% |

(cont.)
canonical_smiles | VDR inhibitor
CC(C)[C@H](NS(=O)(=O)c1ccccc1)C(=O)OCc1cc([N+](=O)[O-])cc2c1OCOC2 | -17%
O=S(=O)(NC1CCCCC1NCc1ccco1)c1ccccc1 (configuration not stated) | 17%
CCC(=O)NC(c1ccccc1OC)c1ccc2cccnc2c1O (configuration not stated) | 3%
CC(Oc1ccc2ccc(=O)oc2c1)C(=O)N1CCOCC1 (configuration not stated) | 5%
CCC(=O)Nc1ccc(-c2ccc(NC(=O)CC)c(OC)c2)cc1OC | -7%
COc1cccc([C@@H]2Oc3ccc(OC)cc3C[C@H]2OC(=O)Nc2ccc(OC(F)F)cc2)c1 | -1%
O=c1c2ccccc2nc(-c2ccccc2)n1Cc1ccccc1 | 2%
C#CCOCCOCCOCCNc1nc(N2CCN(C(=O)[C@H](CCC(=O)O)n3cc(CN)nn3)CC2)nc(N2CCN(C(=O)[C@H](CCCCN)n3cc([C@@H](N)CC(N)=O)nn3)CC2)n1 | 2%
COc1cc(/C=C/C(=O)OCC(=O)N2CCN(S(=O)(=O)c3ccc(C)cc3C)CC2)ccc1O | 6%
Cc1oc(-c2ccccc2)nc1C(=O)O | 2%
COc1ccc(NC(C)=O)cc1NC(=O)CSc1nnc(-c2ccncc2)n1C | 6%
COc1ccc(OC2CCN(S(=O)(=O)c3ccc(OC)cc3)CC2)cc1 | 10%&2%
O=C(Nc1ccc2[nH]c(=O)[nH]c2c1)c1c(F)c(F)c(F)c(F)c1F | 15%
CCOc1cc(-c2noc(-c3ccncc3)n2)cc(Br)c1OC | 8%
Cc1cccc(N2CC(C(=O)Nc3ccc4c(c3)OCCO4)CC2=O)c1C (configuration not stated) | -12%
O=C(Nc1ccc(F)c(Cl)c1)C1CCN(S(=O)(=O)c2cccnc2)CC1 | -7%
O=c1c2ccccc2cnn1Cc1n[nH]c(=S)n1-c1ccc(Cl)cc1 | -16%
COc1ccc(/C=C2\SC(=S)N(CCCC(=O)Nc3cc(C)on3)C2=O)cc1OC | 2%
O=c1c2ccccc2sn1-c1nccs1 | 4µM*
COc1ccccc1NC(=S)N(Cc1ccccn1)Cc1ccccc1Cl | -3%

Fetched by compound from the list above (4):
canonical_smiles | VDR inhibitor
Cc1cccc(N2CC(C(=O)Nc3ccc4c(c3)OCCO4)CC2=O)c1C (configuration not stated) | -12%
CCOC(=O)N1CCC(N2Cc3cccc(C(=O)NCc4ccccc4OC)c3C2=O)CC1 | 0%
O=c1cc(CO)oc(C(Nc2ccccn2)c2ccc(C(F)(F)F)cc2)c1O (configuration not stated) | ?
O=C1C=C(c2cccc(Cl)c2O)C[C@@H](c2ccc(F)cc2)C1 | -12%

The results go on.
canonical_smiles | VDR inhibitor
COc1ccccc1C(=O)OCCNC(=O)Cn1cnc2c1c(=O)n(C)c(=O)n2C | -8%
COc1ccc(C2C(C(=O)NCCN3CCOCC3)c3ccccc3C(=O)N2C2CCCCC2)cc1 (configuration not stated) | 12%
Cc1cc(NC(=O)COC(=O)c2cc(S(=O)(=O)N3CCOCC3)ccc2N2CCCCC2)no1 | 8%
CC(C)[C@H](N)c1cn([C@@H](CO)C(=O)N2CCNCC2)nn1 | -16%
COc1ccc(-c2nc(SCC(=O)N3CCN(c4ccc(F)cc4)CC3)n[nH]2)cc1 | -14%
COCCN(CC1CCCN(C2Cc3ccccc3C2)C1)C(=O)CCC(F)(F)F (configuration not stated) | 15%
Cc1ccc(-c2cc(C(=O)NCc3cccnc3)no2)cc1 | 5%
CCOc1ccc(-c2c(C(=O)N/N=C(\C)c3cccnc3)nnn2-c2nonc2N)cc1 | -12%
CN(CC(=O)Nc1ccccc1Cl)C(=O)CSc1nnc(-c2ccco2)n1C | 2%
O=C(O)C1=CC[C@@H](c2ccc(Cl)cc2)N(S(=O)(=O)c2ccc(Cl)cc2)[C@H]1c1ccccc1 | -28%
Cc1nnc(SCc2ccc(Cl)cc2Cl)[nH]c1=O | 1%
NC(=O)C1CCN(C(=O)Cn2c(-c3cccs3)cc3ccccc32)CC1 | 6%
CCOC(=O)c1ccc(CN(Cc2ccc(OC)cc2)S(=O)(=O)c2cccc(C(F)(F)F)c2)cc1 | 6%
O=C(N1CCCCC1)C12CC3CC(CC(C3)C1)C2 | 9%
Cn1nnnc1SCC(=O)N1CCc2ccccc2C1 | 4%
O=C(Nc1ncc([N+](=O)[O-])s1)c1cccs1 | -12%&-15%&-6%
O=C(Nc1nnc(C2CCCC2)s1)C1CCN(S(=O)(=O)c2ccc(Cl)cc2)CC1 | 10%
CCCCCCCCCNC(=O)[C@H](NC(=O)COc1ccccc1)[C@@H]1NC(C(=O)OC)C(C)(C)S1 (some centres not stated) | -4%
Cc1cccc(CN2CCc3c([nH]c4ccccc34)C2C(C)(C)C)n1 (configuration not stated) | -10%
CC(NC(=S)Nc1ccccc1)C(c1cccs1)N1CCOCC1 (configuration not stated) | 5%

An excerpt from above in order of heavy-atom count, low to high.
canonical_smiles | VDR inhibitor
Cc1ccc(Cl)cc1NC(=O)COc1ccccc1 | -14%
O=C(Nc1ccc2[nH]c(=O)[nH]c2c1)c1c(F)c(F)c(F)c(F)c1F | 15%
CCC(=O)NC(c1ccccc1OC)c1ccc2cccnc2c1O (configuration not stated) | 3%
Cc1ccc(N2C(=O)N(CC(=O)C(C)(C)C)c3ccccc3S2(=O)=O)cc1C | 6%
COc1ccccc1C(=O)OCCNC(=O)Cn1cnc2c1c(=O)n(C)c(=O)n2C | -8%
O=C(NCCc1ccccc1)c1cc(-c2ccccc2)nc2n[nH]c(-c3ccccc3)c12 | -9%

The list continues.
canonical_smiles | VDR inhibitor
O=C(O)C1C2OC3C(OC(=O)C31)C2Br (configuration not stated) | 5%
COC(=O)C1=C(C)NC(=S)NC1c1ccc(OC(=O)c2ccco2)cc1 (configuration not stated) | -20%
Cn1cc(-c2nc3cnc(N4CCNCC4)nc3n(-c3ccccc3)c2=O)c2ccccc21 | 10%
CCc1ccc(C2=CC(c3c(F)cccc3Cl)n3c(nc4ccccc43)N2)cc1 (configuration not stated) | 10%
O=C(NCCN1CCOCC1)N1c2ccccc2Sc2ccccc21 | -13%
CCOc1ccccc1C(=O)NCC(=O)OCC(=O)N1C(C)CCCC1C (configuration not stated) | -1%
CCOC(=O)CNc1c(-c2ccc(OC)cc2)nc2ccc(Cl)cn12 | -12%
CC12CCCCC1(O)[N+](=O)C1=C(CCCC1)N2[O-] (configuration not stated) | -2%
CCN1CCN=C1Nc1ccccc1 | -2%
CC1CN(C(=O)Nc2ccc(F)cc2)C2(CCCCCC2)O1 (configuration not stated) | 7%
CC(C)NC(=O)CSc1nnc2sc3ccccc3n12 | -7%
CCN(CC)c1ccc(/C=C(\C#N)C(=O)NCc2ccccc2)cc1 | -7%
Cc1cc(C)cc(NC(=O)C2CC(=O)N(c3ccccc3)C2)c1 (configuration not stated) | -21%
O=C(CC(c1ccccc1)C1CCCCC1=O)c1ccco1 (configuration not stated) | 3%
Cc1cc(OCC(=O)N(C)Cc2ccccc2)ccc1Cl | -6%
COCCNC(=O)c1cc(-c2ccccc2OC)on1 | -12%
COc1ccc(OC)c(NC(=O)CCn2cccn2)c1 | 10%
CCCCNC(=S)NNC(=O)c1c(Cl)c(C)nn1C | 3%
O=C(CSc1nc(-c2ccc(Cl)cc2)cs1)Nc1cccc([N+](=O)[O-])c1 | -19%

VDR inhibitor, hit marks shown above
canonical_smiles | VDR inhibitor
O=c1c2ccccc2sn1-c1nccs1 | 4µM*

High-throughput results: PubChem BioAssay, National Center for Advancing Translational Sciences (NCATS)
